TRPV1 PAM: human TRPV1 potentiation | TRPV1-expressing cells, Fluo-8 calcium influx, capsaicin EC20 potentiation; host cell line not named in the record; control for the full effect not named in the record | potentiation, % at 8.33 µM | actives 0.02% (n = 320,000); active means potentiation above 80%; inconclusive means 30% to 80%; inactive means below 30%; also: 0% is about no effect
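TRPV1-expressing cells were cultured overnight at 35.5C and loaded with Fluo-8 calcium dye for 40 to 90 min at room temperature. After a 10 s baseline, compound was added and calcium influx was read kinetically for 3 min (ex 480/em 520 nm).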
PINK1 expr mod: modulators of PINK1 expression | PINK1 immunofluorescence, high-content cytometry, 24 h | Potency, µM (series often up to 76.6 µM), without a hit: at the highest dose activation (PINK1 increase), actives largely listed as activators | actives 0.2% (n = 410,000) | AID 624263; active = well fitted activation curve with a large enough effect; inconclusive = small, poorly fitted or top-dose-only effect; inactive = flat fitted curve, though single readings scatter; cell line not stated here;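 also: potency is read from the fitted curve at half-maximal effect; % of control where 0% means no effect; nearly all actives have a fitted effect of over 65% in size; a mitochondrial uncoupler was the plate control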
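A stable cell line was treated with compounds at 5 concentrations for 24 hours, with CCCP as control. PINK1 levels and mitochondrial localization were measured by immunofluorescence with mitochondrial, cell and nuclear markers after fixation, read by laser-scanning cytometry.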
Sfp inh: inhibitors of Bacillus subtilis Sfp phosphopantetheinyl transferase | Q9F4F7 | Biochemical Sfp PPTase activity, qHTS | Potency, µM, for the others: max response, negative = inhibition, most hits filed as inhibitors | actives 3.5% (n = 310,000); active = well fitted inhibition curve with a large enough effect; inconclusive = small, poorly fitted or top-dose-only effect, or another doubt; inactive = no such curve, though single readings can be large or run the other way;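 also: the enzyme is Sfp with the accession as filed and its product quenches rhodamine fluorescence; potency is read from the fitted curve at half-maximal effect; 0% = enzyme reaction without inhibitor and -100% = no enzyme wells; top concentration of the series not given in the record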
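After 15 min at room temperature with compound, 15 nM Sfp received 5 uM rhodamine-CoA plus 12.5 uM BHQ-2-ybbR (50 mM Hepes pH 7.6, 10 mM MgCl2). Rate came from the fluorescence difference over 30 min, ex 525/em 598 nm.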
Six1-Eya2 blk: inhibitors of human Six1/Eya2 interaction | actives 0.56% (n = 360,000) | activity change, % (test concentration not listed) | Q15475+O00167 | AID 651725 | AlphaScreen GST-Six1/His-Eya2 binding, biochemical; active compounds read low; control for the full effect not named in the record; in the data active = activity change below about -65%; inconclusive = about -30% to -65%; inactive = above about -30%; also: % is scaled to controls: 0 for no effect and ±100 for the full control effect
Target sequence (O00167 whole entry, looked up): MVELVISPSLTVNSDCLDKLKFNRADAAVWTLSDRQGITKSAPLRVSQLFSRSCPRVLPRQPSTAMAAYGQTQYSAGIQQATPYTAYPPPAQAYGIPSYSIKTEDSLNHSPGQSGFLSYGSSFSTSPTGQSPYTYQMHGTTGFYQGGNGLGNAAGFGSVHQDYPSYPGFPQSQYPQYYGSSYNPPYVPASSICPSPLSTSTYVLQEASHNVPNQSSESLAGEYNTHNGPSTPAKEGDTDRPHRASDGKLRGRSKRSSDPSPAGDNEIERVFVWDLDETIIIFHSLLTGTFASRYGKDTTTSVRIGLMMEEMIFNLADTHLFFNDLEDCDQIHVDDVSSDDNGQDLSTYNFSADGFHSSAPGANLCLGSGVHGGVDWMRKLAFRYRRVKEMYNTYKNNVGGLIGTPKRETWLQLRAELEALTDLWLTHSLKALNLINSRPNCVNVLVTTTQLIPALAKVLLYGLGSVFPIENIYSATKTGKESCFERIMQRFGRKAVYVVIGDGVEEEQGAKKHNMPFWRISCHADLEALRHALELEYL
Target sequence (Q15475 whole entry, looked up): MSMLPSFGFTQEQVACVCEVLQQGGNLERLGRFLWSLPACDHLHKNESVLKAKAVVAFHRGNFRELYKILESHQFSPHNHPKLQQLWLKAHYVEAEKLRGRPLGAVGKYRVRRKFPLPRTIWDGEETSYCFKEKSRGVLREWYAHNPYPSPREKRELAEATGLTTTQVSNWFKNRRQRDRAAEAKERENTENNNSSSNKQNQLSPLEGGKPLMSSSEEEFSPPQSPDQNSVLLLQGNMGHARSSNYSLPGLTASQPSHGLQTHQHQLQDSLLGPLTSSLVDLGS
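Compounds are tested against tagged Six1 and Eya2 proteins bridged by glutathione donor and nickel acceptor beads; after a one-hour incubation at 37 °C without light, AlphaScreen emission is recorded.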
D2 agonist: human D2 receptor agonism in beta-arrestin assay; DiscoveRx PathHunter D2 beta-arrestin, luminescence, 90 min; 100% = 57 uM dopamine signal; activation, % (concentration not given with the values); AID 624465; actives 0.084% (n = 360,000); in the data active = activation above about 40%; inconclusive = about 15% to 40%; inactive = below about 15%; also: compound concentration not given in the record; the text of the record calls up to 30% inactive
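Agonist mode: compounds alone added to overnight-plated D2 PathHunter cells for 90 min at 37 C, with 57 uM final dopamine (EC100) defining full response. Beta-arrestin recruitment detected by chemiluminescent reagent, read after 1 h at ambient temperature.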
D2 potentiator: human D2 receptor positive allosteric modulation; AID 624464; actives 0.23% (n = 360,000); DiscoveRx D2 beta-arrestin cells, luminescence, 90 min; 100% = 57 uM dopamine signal; potentiation, % (test concentration not listed); P14416; active = potentiation of 50% or more; inconclusive = 30% to 50%; inactive = 30% or less;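 also: compound concentration not given in the record; tested on top of an EC20 dose of dopamine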
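PathHunter D2 cells, attached overnight at 37 deg C, received compound in DMSO plus dopamine at EC20 (50 nM final) for 90 min at 37 deg C. Beta-arrestin recruitment was read as luminescence after 1 h with detection reagent at ambient temperature.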
CtBP-E1A blk: CtBP/E1A binding inhibition; AlphaScreen GST-E1A/His-CtBP binding, 1536-well; active compounds read low; control for the full effect not named in the record; activity change, % (test concentration not listed); actives 0.49% (n = 340,000); in the data active means activity change below about -65%; inconclusive means about -30% to -65%; inactive means above about -30%; also: % is scaled to controls: 0 for no effect and ±100 for the full control effect
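In 5 uL wells, 23 nL compound meets equimolar GST-E1A and His-CtBP (5X stock 125 nM each) for 2 h, 37 °C. Beads (5X, 50 ug/mL) then 1 h, 37 °C, dark.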
Starred values were filed as active, the others as inactive; ? = inconclusive; . = not tested or not shown; & = joins results of further samples; [ ] = dose if it differs, or a comment.

SMILES	TRPV1 PAM	PINK1 expr mod	Sfp inh	Six1-Eya2 blk	D2 agonist	D2 potentiator	CtBP-E1A blk
O=C(NNC1=Nc2ccccc2SC1)c1ccc(F)cc1	-25	4.3%	13%	-17	2.2	-13	-15
CCOC(=O)c1c(CN2CCOCC2)n(-c2ccccc2)c2ccc(O)cc12	-10	3.7%	3%	-7	3.1	-9	-12
CC(OC(=O)c1cc2sccc2n1C)C(=O)NCC1CCCO1 (stereo not given)	2	10µM*	5%	-6	-3.1	6	-17
O=C(CSc1nnc(-c2ccccc2)o1)Oc1ccc(Br)cc1	-11	.	-4%	1	2.4	-4	10
CCCNC(=O)c1ccc2c(=O)n(Cc3ccco3)c(=S)[nH]c2c1	7	1.5%	4%	-5	-1.5	3	-1
CCOc1ccc(-c2noc(CCCC(N)=O)n2)cc1OC	-13	-2.6%[38.3 µM]	15%	0	0.8	4	2
Cn1c(=O)cc(OCC(=O)NCc2cccnc2)c2ccccc21	.	3.3%[38.3 µM]	16%	-15	-3.6	-14	-3
CC(=O)C[C@H]1c2cc(C(F)(F)F)ccc2S(=O)(=O)N1C1CCCCC1	.	5.6%	.	-1	1.4	-4	6
O=c1c2ccc(Cl)cc2nc(-c2cccc(C(F)(F)F)c2)n1O	-11	8.0%	23%	-3	-9.3	0	-3
CCOC(=O)[C@@H]1[C@H]2COc3cc(OC)ccc3[C@H]2N2C(=O)N(c3ccccc3)C(=O)[C@]12C	.	-0.6%	.	-2	-3.7	-18	-2
Cc1ccc(S(=O)(=O)N(C)C)cc1NC(=O)COC(=O)CNC(=O)c1cccs1	6	0.4%	.	6	-5.0	-45	-13
CCS(=O)(=O)N1CCC(NC(=O)C(Cc2cccc(OC)c2OC)NC(C)=O)CC1 (stereo not given)	1	-1.2%	12%	-6	-2.0	-3	2
CCOC(=O)c1ccc(NC(=O)CSc2nc(N)c(NC(=O)c3ccc(Br)o3)c(=O)[nH]2)cc1	7	4.9%	-11%	-79*	-1.5	-6	?
CC(C)CNC(=S)N1CCN(c2nc(-c3ccc(Cl)cc3)cs2)CC1	13	3.5%	34%[activator]	-3	0.2	-2	-10
Cc1cc(C)c2sc(NNC(=O)C3COc4ccccc4O3)nc2c1 (stereo not given)	1	6.8%	-10%	-6	-4.0	-6	0
COc1ccc(OC)c(NC(=O)c2ccc(NC(C)=O)cc2)c1	-3	1.2%	1%	-7	-4.1	-19	-1
COc1cccc(NC(=O)CSc2nnc(Cn3c(=O)sc4ccccc43)n2C)c1	?	-0.8%	8%	-2	-1.3	-7	-3
CN(C(=O)CSc1nc(N)nn1-c1ccccc1)c1ccccc1	2	0.4%	13%	-2	-1.6	-2	7
CCOC(=O)C(=O)Nc1ccccc1C(=O)NCc1ccccc1	11	0.7%	16%	2	1.8	1	6
COc1cc(/C=N/NC(=O)c2cccc(NC(=O)c3ccccc3Cl)c2)ccc1O	6	0.8%	11%	-14	2.9	-1	-15

SMILES	TRPV1 PAM	PINK1 expr mod	Sfp inh	Six1-Eya2 blk	D2 agonist	D2 potentiator	CtBP-E1A blk
NC(=O)c1ccc(NC(=O)COC(=O)CCCc2c[nH]c3ccccc23)cc1	11	2.4%	12%	4	-4.2	-6	.
O=C(CCC(=O)OCC(=O)c1ccc(F)cc1)NC1CCCCC1	1	-1.3%	21%	3	-0.5	-22	-3
O=C(CCSCCc1ccccn1)Nc1ccc(Br)cn1	-14	0.0%[38.3 µM]	4%	-2	-3.5	-4	1
O=S(=O)(c1ccccc1)c1nc(Nc2cccc(O)c2)sc1Cl	-6	1.2%	-16%	4	1.3	11	0
N#Cc1c(N(CCO)CCO)nc(N)c2c(N)nc3c(c12)CC(=O)N3Cc1cccs1	5	-1.2%	4%	?	2.2	-2	.
COc1ccc(OC)c(S(=O)(=O)Nc2c(F)cccc2F)c1	7	1.3%	5%	6	-1.1	-7	-5
O=C(CNS(=O)(=O)c1ccccc1)N1CCCC1	19	0.2%	3%	8	0.5	-7	-1
CCC(NC(=O)c1cccc(Cn2cc([N+](=O)[O-])cn2)c1)c1ccc(C(C)C)cc1 (stereo not given)	15	-3.8%[38.3 µM]	3%	-5	-3.8	-10	-7
Cc1ccc(CNC(=O)CCn2ccc3cc(S(=O)(=O)N4CCCC4)ccc32)cc1	5	-1.2%&-1.4%	9%	-1	0.4	-7	2
O=C(NC1=NCCS1)c1cccc(NC(=O)c2ccco2)c1	0	0.3%	-4%	-1	-1.1	-10	-5
CC(=O)OC(C(=O)NC1CCCCC1)c1ccc(Cl)c(Cl)c1 (stereo not given)	-16	1.1%	1%	2	3.2	4	1
CCC(CO)n1c(SCc2cc(=O)oc3cc(C)ccc23)nc2ccccc2c1=O (stereo not given)	-19	-2.1%	2%	0	-2.0	-7	-13
O=c1[nH]c(-c2ccccc2Cl)nc2c1sc(=S)n2-c1ccccc1	0	-0.7%	1%	2	2.7	-3	3
CC1CN(c2cc(=O)n(-c3ccc(Cl)cc3)c(=O)[nH]2)CC(C)O1 (stereo not given)	-3	3.5%	-10%	4	-0.7	-11	12
Cc1cccc(CN(C)C)c1CC(O)(c1ccccc1)c1ccccc1	.	11%	.	11	1.3	-7	-1
C/C=C/COc1nc2c(c(=O)n(C)c(=O)n2C)n1C	4	-1.6%	11%	-8	-2.7	-4	-4
O=C(NN1C(=O)c2ccccc2C1=O)c1ccncc1	-9	-1.5%	22%	0	-0.8	7	-1
CC(=O)N1CCC2(CC1)CC(=O)c1cc(OCC(=O)N3CCCC3)ccc1O2	5	0.1%	22%	1	-4.3	-9	-12
O=C(CCC(=O)N/N=C/c1c[nH]c2ccccc12)NCc1ccccc1	2	-2.4%	5%	-8	0.9	-10	3
O=C(Nc1nc2nc(-c3ccccc3)cc(-c3ccccc3)n2n1)c1ccco1	-7	-2.3%	-15%	?	-4.6	1	-27

Whole records as entered above. Screens in order: TRPV1 PAM | PINK1 expr mod | Sfp inh | Six1-Eya2 blk | D2 agonist | D2 potentiator | CtBP-E1A blk
`CCC(CO)n1c(SCc2cc(=O)oc3cc(C)ccc23)nc2ccccc2c1=O` (stereo not given) across the screens: -19 | -2.1% | 2% | 0 | -2.0 | -7 | -13
`C/C=C/COc1nc2c(c(=O)n(C)c(=O)n2C)n1C` across the screens: 4 | -1.6% | 11% | -8 | -2.7 | -4 | -4

Next compounds:
SMILES	TRPV1 PAM	PINK1 expr mod	Sfp inh	Six1-Eya2 blk	D2 agonist	D2 potentiator	CtBP-E1A blk
CCn1c(NCc2ccc(OC)cc2)nc2ccccc21	15	2.6%&0.0%	2%	-2	-1.8	-4	8
N#Cc1ccc(NC(=O)CSc2cn[nH]n2)cc1	1	0.7%	10%	-1	-4.1	-3	5
Cc1ccc(/C=N/NC(=O)c2ccccc2OCc2cccc(Br)c2)o1	13	24%	-20%	-10	7.8	-2	-21
CCn1c(=O)cc(SCC(=O)Nc2ccc(OC)c(OC)c2)c2ccccc21	-3	3.0%	10%	-18	1.7	7	-9
CCOC(=O)c1c[nH]c2ccc3ccccc3c2c1=O	-11	1.3%	-4%	-2	1.0	16	.
CCN(CC)S(=O)(=O)c1cccc(-c2nnc(SCCCC(=O)c3ccc(F)cc3)o2)c1	18	.	15%	8	-3.0&3.0	-9	12
Cc1ccc(-n2c(COc3cccc(C)c3)n[nH]c2=S)cc1	-2	-0.2%	-25%	14	-2.5	0	0
c1ccc(NC2=NCCN2CC2CCCC2)cc1	-11	-0.5%	13%	7	-0.4	-14	7
CN(C)c1ccc(CNC(=O)CCS(=O)(=O)c2ccc3c(c2)n(C)c(=O)c(=O)n3C)cc1	12	2.9%	4%	20	1.8	-1	14
CCN(CC)S(=O)(=O)c1ccc2[nH]cc(C(=O)NC3CC3)c(=O)c2c1	-2	1.0%	11%	-15	7.4	2	.
COc1ccc(C(c2nnnn2-c2ccc(OC)cc2)N2CCN(C/C=C/c3ccccc3)CC2)cc1 (stereo not given)	.	0.0%	.	-28	-1.9	-14	-27
COCCN(CCOC)Cc1c(C)[nH]c2c(C)c(C)ccc2c1=O	-3	.	7%	2	0.3	-5	14
Cc1ccc(C2(c3ccccc3)NC(=O)N(CC(=O)NC3CCCCC3)C2=O)cc1C (stereo not given)	9	1.7%	.	-7	-1.9	-22	2
COc1ccc(-n2c(SCC(=O)Nc3ccccc3)nnc2-c2ccc(NS(=O)(=O)c3ccc(C)cc3)cc2)cc1	-3	-1.0%	-6%	18	-1.3	?	0
O=C(CC(NC(=O)OCc1ccccc1)C(=O)OCc1ccccc1)OCc1ccccc1 (stereo not given)	.	-0.2%	.	26	-4.0	6	54
Cc1ccc(C)c(-c2cc(C(=O)N/N=C/c3cccnc3)c3ccccc3n2)c1	8	1.6%	5%	-16	-1.3	-13	?
CC1(C)CC2CC(C)(CN2/C=N/c2sc3c(c2C#N)CC(C)(C)NC3(C)C)C1 (stereo not given)	9	-3.1%	-15%	2	-4.7	-12	-12
CN(C)c1ccc(C(=O)N2CC(=O)N(CCc3ccccc3)C(=O)C2)cc1	-2	-2.1%	16%	2	-2.1	8	-3
COc1ccccc1OCCCOc1c(Cl)cc(C)cc1Cl	-1	16%	-1%	61	0.3	-16	21
CCC(c1nnnn1Cc1ccco1)N(Cc1ccccc1OC)Cc1cc2cc(C)ccc2[nH]c1=O (stereo not given)	-2	-3.4%	-24%	3	1.5	-4	6

SMILES	TRPV1 PAM	PINK1 expr mod	Sfp inh	Six1-Eya2 blk	D2 agonist	D2 potentiator	CtBP-E1A blk
CNC(=O)c1nnc(Cc2ccc(Cl)cc2)o1	-4	-1.1%	16%	0	-4.5	-4	3
COc1cc(NC(=O)COC(=O)c2cnccn2)c(C)cc1[N+](=O)[O-]	.	-1.0%	-4%	-24	-2.5	-3	-4
Cc1n[nH]c(=O)n1-c1ccc(Oc2ccccc2)cc1	8	-0.5%	16%	1	-3.3	-9	-1
CCOC(=O)CSc1nnc(CCc2nc3ccccc3[nH]2)n1C	10	-1.5%	7%	-1	0.2	-5	1
CCCn1c(=O)c(C(=O)Nc2cccc(C)c2)c(O)c2ccccc21	3	?	1%	16	-1.6	-1	.
Cc1ccc(CNC(=O)CSc2nc3ccccc3c(=O)n2CC2CCCO2)cc1 (stereo not given)	.	0.5%	.	6	-3.8	-9	.
CCCOC(=O)C1=C(C)N(C)C(=O)NC1c1cc2c(cc1Br)OCO2 (stereo not given)	-10	2.9%	8%	-17	-7.5	-3	-11
CCCCN1C(=S)SC(C)(C)C1/[N+]([O-])=C/c1cccnc1 (stereo not given)	-1	-0.3%	10%	9	-2.6	-5	12
